Screening data deposited in PubChem by ICCB-Longwood Screening Facility, Harvard Medical School.
RVFV N-RNA inh = RVFV nucleocapsid-RNA interaction inhibition. AID 651828. RVFV N-RNA binding, fluorescence polarization; active compounds read low. % bound, % (test concentration not listed). 20,000 tested, 0.1% active;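 active = between 0 and 58% in either replicate with normal brightness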;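 note: 100 nL library stock added to about 12 µL; 100% = protein and probe without compound and 0% = probe alone; numbers are from one replicate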
Target sequence (P21700 whole entry, looked up): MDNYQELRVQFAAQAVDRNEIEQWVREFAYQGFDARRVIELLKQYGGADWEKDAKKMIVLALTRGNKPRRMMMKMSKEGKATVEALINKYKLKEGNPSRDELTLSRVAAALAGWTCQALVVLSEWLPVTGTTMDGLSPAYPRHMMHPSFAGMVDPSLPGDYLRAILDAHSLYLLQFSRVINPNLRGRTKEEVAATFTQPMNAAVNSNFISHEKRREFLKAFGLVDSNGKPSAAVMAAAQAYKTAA
Numbers without * were called inactive; & = joins results of further samples. A portion of the library, so the mix of outcomes need not match the whole.

SMILES | RVFV N-RNA inh
COc1cc(S(=O)(=O)N2CCCCC2)ccc1N=Cc1c(C)[nH]n(-c2ccccc2)c1=O | 96
N=c1c2c(-c3ccccc3)c(-c3ccccc3)oc2ncn1CCN1CCOCC1 | 93
O=S(=O)(c1ccccc1)n1nc(-c2ccccc2)nc1NCc1cccs1 | 101
CC(C)N(C(=O)c1ccc(C(=O)N2CCCCC2)cc1)C(C)C | 88
C=CCN1CC[C@]23c4c5ccc(O)c4O[C@H]2C(=O)CC[C@@]3(O)[C@H]1C5 | 96&96
NC(=O)CC1NC(=O)c2ccccc21 (stereo unspecified) | 97
NNC(=O)CSCc1nc(-c2ccccc2)cs1 | 98
O=C1CS/C(=N/C(=O)NC2(C(F)(F)F)Oc3ccc(Cl)cc3O2)N1 (stereo unspecified) | 90
NC(=O)C1CCN(C2CC(=O)N(Cc3ccc(F)cc3)C2=O)CC1 (stereo unspecified) | 94
COc1cc(C(=O)c2cc(Cl)ccc2N)cc(OC)c1OC | 91
C[Se]CC[C@H](N)C(=O)O | 102
CC(=O)N1N=C(c2ccco2)CC1c1cc2cccc(C)c2nc1Cl (stereo unspecified) | 88
N#CC1C(c2ccccc2F)C(C(N)=O)C(=O)NC1(O)c1ccccc1 (stereo unspecified) | 94
Nc1ncnc(N2CCc3ccccc32)n1 | 95
COCCN1CSC(=S)N(Cc2ccco2)C1 | 96
O=C(COc1ccccc1)Nc1ncc2c(n1)CCCC2=O | 97
Cc1ccc(N2C(=O)c3ccc(-c4nc5ccccc5o4)cc3C2=O)cc1C | 97
CCSc1nc2ccccc2c(=O)n1C1CCCC1 | 92
COC(=O)c1ccc(S(=O)(=O)NCc2ccc(N3CCN(C)CC3)cc2)o1 | 101
C=CCSc1nnc2c(n1)OC(CC)Nc1ccccc1-2 (stereo unspecified) | 91
CCn1c(=O)sc2cccc(Cl)c21 | 92
COc1ccc(C2Nc3nc4ccccc4n3C(N)=C2C#N)cc1 (stereo unspecified) | 99
O=C1CC(N(Cc2ccc3c(c2)OCO3)C(=O)Nc2ccc(F)cc2)C(=O)N1c1ccccc1 (stereo unspecified) | 96
O=C(CCc1ccccc1)NCC1COC2(CCCCC2)O1 (stereo unspecified) | 90
O=[N+]([O-])c1cccc2cn[nH]c12 | 96&96
C=CCn1ncc(OC)c(Cl)c1=O | 96
CCN(CC)C(=O)C1CCCN(C/C=C/c2ccccc2)C1 (stereo unspecified) | 96
COc1ccc2c(=O)c(-c3ccccn3)coc2c1 | 90
COc1ccc(-c2cn3cccnc3n2)cc1NC(=O)c1cc(OC)c(OC)c(OC)c1 | 92
CC(Oc1cccc(Cl)c1)C(=O)O/N=C(\N)c1cccnc1 (stereo unspecified) | 93
CC(C)N(C(=O)CSc1nc(=O)n2ccccc2n1)C(C)C | 100
CN(C1CCCCC1)S(=O)(=O)c1ccc(C(=O)Nc2nnc(-c3cccnc3)o2)cc1 | 96
Cc1onc(-c2ccccc2)c1C(=O)ON=C1C2CC3CC(C2)CC1C3 | 92
O=C(NCc1ccccc1)c1cc2ccc(O)cc2oc1=O | 101
Clc1ccc(Cn2nnc3c(SCc4cccnc4)ncnc32)cc1 | 97
N#CCCn1c(CC(N)=O)nc2ccccc21 | 100
Cc1cc(OCC(=O)Nc2ccccc2N2CCN(C(=O)C(C)C)CC2)cc(C)c1Cl | 99
CC(C)C1C(C#N)=C(N)Oc2c1oc(CO)cc2=O (stereo unspecified) | 93
Cn1c(O)c(C=NC(Cc2c[nH]c3ccccc23)C(=O)O)c(=O)n(C)c1=O (stereo unspecified) | 107
Cc1cccc(/C=C2\SC(=O)N(C)C2=O)c1 | 92
CCC(=O)Oc1ccc(C(=O)N2CCCCC2)cc1 | 92
NC(=O)NS(=O)(=O)c1ccc(N)cc1 | 102
O=C1NC(=O)C2C1C(c1ccco1)NN2Cc1ccccc1 (stereo unspecified) | 108
N#Cc1ccc(COC(=O)c2ccccc2)cc1 | 97
COc1cccc(C(=O)NCc2ccc3c(c2)cc(C)n3C)c1 | 95
C=CCc1cccc(Cl)c1OCCNCc1ccco1 | 97
Cc1c(C(=O)/C=C/N(C)C)nnn1-c1ccc(Cl)cc1C#N | 102
O=C(/C=C/c1ccccc1)NCCO | 102
CCC(CC)C(=O)Nc1cccc(C(=O)NCc2ccco2)c1 | 113
N#CC(C#N)=Cc1ccc(-c2cccs2)s1 | 86
c1ccc2c(-c3csc(-c4ccc(-c5ccno5)s4)n3)csc2c1 | 95
COc1ccc(Br)cc1C(=O)NCc1cccnc1 | 95
Cn1c(=O)c(C(=O)NCCCc2ccccc2)cc2cccnc21 | 91
O=C(CCCCn1c(=O)[nH]c2ccsc2c1=O)N1CCN(c2ccccc2)CC1 | 96
CN(C)/C=C/C=C/c1cc(=O)cc(/C=C/C=C/N(C)C)o1 | 88
CC1(C)Cc2c(c(N3CCOCC3)nc3sc4c(c23)N2C(=O)CCC2(C)NC4=O)CO1 (stereo unspecified) | 98
Cc1ccc2c(c1)CCCN2C(=O)C1CCCO1 (stereo unspecified) | 89
O=C1NCN(c2ccccc2)C12CCN(CCCC(c1ccc(F)cc1)c1ccc(F)cc1)CC2 | 100&92
Cc1nc(C)nc(NC(=O)NC(=O)c2cc(OCC(F)(F)F)ccc2OCC(F)(F)F)n1 | 96
CCn1c(=NC(=O)c2ccc(S(=O)(=O)N(C)C)cc2)sc2cc(C(=O)OC)ccc21 | 94

(next part)
SMILES | RVFV N-RNA inh
CC(C)(C)c1ccc(/C=C/C(=O)Nc2ccc3c(c2)OCCO3)cc1 | 92
COC(=O)C(C)N1C(=O)S/C(=C/c2cccn2C)C1=O (stereo unspecified) | 95
Cc1nccn1CC(=O)N/N=C/c1ccc(O)c(O)c1 | 94
OCc1cc(C(O)CNCCCCCCOCCCCc2ccccc2)ccc1O (stereo unspecified) | 96&97&99
CCCCc1cc(=O)oc2cc(OC(C)=O)cc(OC(C)=O)c12 | 98
COc1ccc(CN2CCCC(C(N)=O)C2)cc1 (stereo unspecified) | 100
c1csc(-c2ccn3cnnc3n2)c1 | 97
CSCC(CSC)OC(=O)Nc1ccc(Cl)cc1 | 98
COc1ccc(NC(=O)c2ccc(-c3ccc(-c4noc(C)n4)cc3C)cc2)cc1N1CCN(C)CC1 | 102
Cc1ccccc1-n1c(O)c(C=NCC2CCCO2)c(=O)[nH]c1=S (stereo unspecified) | 89
NN1CC(=O)N(c2ccc(Cl)cc2)CC1=O | 95
COc1ccc(C(=O)NC(=S)Nc2ccc(NC(=O)c3ccco3)cc2)cc1Cl | 98
COc1ccc(N2CCN(S(=O)(=O)/C=C/c3ccccc3)CC2)cc1 | 96
CC(=O)Nc1ccc2c(c1)ncn2C1CCCCC1 | 104
CC(=C\c1ccccc1)/C=C1/SC(=O)N(C(C)C)C1=O | 105
COC(=O)c1c(C)[nH]c(C)c1/C=N/OC(=O)c1cccs1 | 95
S=c1[nH]nc(Cc2ccccc2)n1C1CCCCC1 | 96
O=S(=O)(Cc1nc(COc2c(Cl)cccc2Cl)no1)c1ccc(Cl)cc1 | 100
FC(F)(F)c1ccc(N2CCCN(C(=S)Nc3cccnc3)CC2)nc1 | 88
Cc1cc(C(=O)NN2CCN(C)CC2)cs1 | 93
CCCCc1ccc(N2C(=NC(=O)CC)SC3CS(=O)(=O)CC32)cc1 (stereo unspecified) | 95
Cc1c(Cl)sn(-c2ccc(Cl)cc2)c1=O | 69
Cc1ccccc1NC(=O)CSC1CCCCC1 | 92
N#Cc1c(-c2cccs2)nc(Nc2ccccc2)[nH]c1=O | 98
Cc1ccccc1-n1c(N)cc(=O)n(Cc2cccs2)c1=O | 99
O=C1NC(=O)/C(=C/c2cccc(C(F)(F)F)c2)S1 | 99
COc1cc2nc(NC(=O)c3cccs3)sc(=O)c2cc1OC | 105
Cc1onc(-c2ccccc2)c1C(=O)NNc1ccccc1C(F)(F)F | 91
CCN(CC)C(=O)c1ccccc1NC(=O)Cc1ccccc1 | 104
C/C(CCn1c(=O)sc2ccccc21)=N\NC(N)=S | 92
O=C1NCCC/C1=N/Nc1ccccc1 | 99
CCC(C)N(C(=O)/C=C/c1cccs1)C(C)CC (stereo unspecified) | 90
Cc1nnsc1C(=O)N1CCC(C(F)(F)F)CC1 | 91
O=C(CSC1=NNC(c2ccccn2)S1)Nc1cccc(Cl)c1 (stereo unspecified) | 90
O=c1[nH]c2ccccc2n1CCCSc1cc(C(F)(F)F)c2cc3c(cc2n1)OCO3 | 98
OCCNc1nc2ccccc2nc1-c1ccccc1 | 97
O=S(=O)(N1CCCCC1)N1CCN(CC(O)COc2ccc3cc(Br)ccc3c2)CC1 (stereo unspecified) | 94
O=S(=O)(NCC1CCCO1)c1ccc(Br)s1 (stereo unspecified) | 98
CCOc1ccc(S(=O)(=O)NCc2cn3ccccc3n2)cc1 | 100
N#Cc1c(NC(=O)CON2C(=O)CCC2=O)sc2c1CCCC2 | 100
Brc1ccc(CN2CCC(N3CCCCC3)CC2)cc1 | 100
COc1ccc(CC(=O)NC2CC2)cc1OC | 99
Fc1ccc(-c2nc3n(c2-c2ccncc2)CCS3)cc1 | 96
Nc1ccnn1-c1ccccc1 | 93
CCN1C(=O)CN(c2ccccc2)C1=S | 81
OC[C@H]1O[C@@H](n2cnc3c(NC4CCCC4)nc(Cl)nc32)[C@@H](O)C1O (stereo partly specified) | 95
O=c1c2ccccc2[nH]c(=S)n1CCN1CCC(=C(c2ccc(F)cc2)c2ccc(F)cc2)CC1 | 108
CC(C)(C)C1CCC2(CC1)C(C#N)=C(SCC(=O)NC1CCCCC1)NC(=O)C2C#N (stereo unspecified) | 89
CC(C)C(=O)Nc1ccc(-c2nc3ccccc3c(=O)[nH]2)cc1 | 92
Cc1nnc2sc(-c3ccc(NC(=S)NC(=O)c4cccs4)cc3)nn12 | 99
O=C1CN(S(=O)(=O)c2ccc3c(c2)Cc2ccccc2-3)CC(=O)N1 | 103
O=c1cc(CN2CCN(c3ccc(F)cc3)CC2)occ1OCC1OCCO1 | 95
CCn1nc(C)c(NC(=S)Nc2ccc(OC)c(OC)c2)c1C | 91
CCCCCOc1ccc(NC(=O)C(C)(C)C)cc1 | 108
O=c1c(=NNc2ccccc2)c(=O)c2ccccc12 | 88
COc1cccc2cc(-c3cc(=O)oc4ccc(OC(=O)N5CCOCC5)cc34)oc12 | 98
CCOC(=O)c1ccc2c(N)c(-c3cccnc3)sc2n1 | 90
CN(Cc1ccccc1)C1(O)C(=O)Nc2ccc(Br)cc21 (stereo unspecified) | 92
CNC(=O)NNc1nccc(-c2cccnc2)n1 | 88
O=S(=O)(c1ccc(N2CCOCC2)cc1)N1CCOCC1 | 98

Pulled one by one from the entries so far, 3 records:
SMILES | RVFV N-RNA inh
O=S(=O)(c1ccc(N2CCOCC2)cc1)N1CCOCC1 | 98
CC(C)(C)C1CCC2(CC1)C(C#N)=C(SCC(=O)NC1CCCCC1)NC(=O)C2C#N (stereo unspecified) | 89
CN(Cc1ccccc1)C1(O)C(=O)Nc2ccc(Br)cc21 (stereo unspecified) | 92

Going on with the list:
SMILES | RVFV N-RNA inh
N#CC(C(=O)c1ccco1)=C1SCCCS1 | 93
O=C1NC(=O)C(c2ccccc2[N+](=O)[O-])=C1Nc1ccc(O)c(Cl)c1 | 99
CC(C)(C)CC(C)(C)NS(=O)(=O)c1ccc(F)cc1 | 96
COc1cc(S(=O)(=O)N2CCCc3ccccc32)c(OC)cc1C | 106
O=C(CC1SC(=NC2CC3C=CC2C3)NC1=O)Nc1ccc(Cl)cc1 (stereo unspecified) | 90
Cc1ccccc1-c1nc(C#N)c(NC2CCCCC2)o1 | 89
CCN1C(=O)c2ccc(Oc3ccc4c(c3)C(=O)N(CC)C4=O)cc2C1=O | 98
COc1ccc(NC(=O)c2ccco2)cc1NC(=S)NC(=O)Cc1ccccc1 | 86
C=C(N)N[C@@H](CCC(=O)O)C(=O)O | 112
COCCNC(=S)N1CCCC(CO)C1 (stereo unspecified) | 86
O=C(OCN1C(=O)c2ccccc2C1=O)c1ccc(Cl)cc1 | 91
O=S(=O)(c1ccccc1)n1cnc2ccccc21 | 91
CCN1CC(O)=C(c2ccccc2)C1=N | 95
Oc1c(Br)cc(Cl)cc1/C=N/c1ccccn1 | 79
O=C(O)c1cn(-c2ccc(F)c(F)c2)c2c(F)c(F)c(F)c(F)c2c1=O | 78
Cc1nnc(SCc2ccc(C#N)cc2)s1 | 88
Cn1cccc1/C=C1/SC(=S)N(c2ccc(C(=O)O)cc2)C1=O | 117
O=C(Nc1ccccn1)C1CCCN1S(=O)(=O)c1ccc(Cl)cc1 (stereo unspecified) | 99
CCCCNc1ccc(C(F)(F)F)cn1 | 98
Cc1cc2c(c(=O)n1C)C(c1ccc(C(C)C)cc1)C(C#N)=C(N)O2 (stereo unspecified) | 101

In another format: results already given
Structure: O=C(CC1SC(=NC2CC3C=CC2C3)NC1=O)Nc1ccc(Cl)cc1 (stereo unspecified)
  RVFV N-RNA inh: 90
Structure: O=S(=O)(c1ccccc1)n1cnc2ccccc21
  RVFV N-RNA inh: 91
Structure: CCCCNc1ccc(C(F)(F)F)cn1
  RVFV N-RNA inh: 98
Structure: COc1ccc(NC(=O)c2ccco2)cc1NC(=S)NC(=O)Cc1ccccc1
  RVFV N-RNA inh: 86

The list continues:
SMILES | RVFV N-RNA inh
CC(C)N1C(=O)C2C(c3ccco3)NN(Cc3ccccc3)C2C1=O (stereo unspecified) | 102
COc1nc(C)nc(/N=C\NO)n1 | 100
NC(=O)COC(=O)C(c1ccccc1)c1ccccc1 | 99
Cc1nc(CCNC(=O)CC2CCCCC2)cs1 | 109
Cc1nc(C(F)(F)F)nc(NNC(=O)Nc2ccccc2)c1C | 97
O=C(/C=C/NCc1ccccc1)c1cccs1 | 92
C(=N\c1ncn[nH]1)/c1ccccc1 | 93
O=C(CCS(=O)(=O)c1ccccc1)N1CCN(c2ccccc2)CC1 | 103
CC(=O)O[C@H]1C[C@@H]2CC[C@@H]3[C@H](CC[C@@]4(C)[C@H]3C[C@H]([N+]3(C)CCCCC3)[C@@H]4OC(C)=O)[C@@]2(C)C[C@@H]1N1CCCCC1 | 93&104
